gsp antagonist: antagonists of gsp mutant (McCune-Albright syndrome); 340,000 tested, 0.4% active; AID 624288; gsp-mutant cells, cAMP HTRF, 30 min; control for the full effect not named in the record; Potency, µM (titrated, usually from 76.9 µM), inactives show at the top dose activity change, negative = inhibition, usual class: inhibitors; active = falling curve of any shape with a large fitted effect; inconclusive = falling curve, mostly with a smaller effect; inactive = flat or rising curve; cell line not stated here;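 further: intracellular cAMP measured with PDE inhibitor Ro 20-1724 present during compound exposure; potency means the concentration at half of the fitted maximal effect; on the % scale 0 is the no-effect control and ±100 the full control effect; nearly all actives have a fitted effect of over 65% in size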
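HTRF cAMP read-out (cAMP-d2 plus anti-cAMP antibody-K in lysis buffer, 30 min RT). Before lysis, cells are exposed to compounds with […] for 30 min at 37C in DPBS containing Ca/Mg, BSA and Tween 20.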
Six1-Eya2 inh: inhibitors of human Six1/Eya2 interaction | AlphaScreen GST-Six1/His-Eya2 binding, biochemical; active compounds read low; control for the full effect not named in the record | activity change, % (no concentration beside the values) | 360,000 tested, 0.56% active; in the data active = activity change below about -65%; inconclusive = about -30% to -65%; inactive = above about -30%; further: on the % scale 0 is the no-effect control and ±100 the full control effect
Target sequence (O00167 whole entry, looked up): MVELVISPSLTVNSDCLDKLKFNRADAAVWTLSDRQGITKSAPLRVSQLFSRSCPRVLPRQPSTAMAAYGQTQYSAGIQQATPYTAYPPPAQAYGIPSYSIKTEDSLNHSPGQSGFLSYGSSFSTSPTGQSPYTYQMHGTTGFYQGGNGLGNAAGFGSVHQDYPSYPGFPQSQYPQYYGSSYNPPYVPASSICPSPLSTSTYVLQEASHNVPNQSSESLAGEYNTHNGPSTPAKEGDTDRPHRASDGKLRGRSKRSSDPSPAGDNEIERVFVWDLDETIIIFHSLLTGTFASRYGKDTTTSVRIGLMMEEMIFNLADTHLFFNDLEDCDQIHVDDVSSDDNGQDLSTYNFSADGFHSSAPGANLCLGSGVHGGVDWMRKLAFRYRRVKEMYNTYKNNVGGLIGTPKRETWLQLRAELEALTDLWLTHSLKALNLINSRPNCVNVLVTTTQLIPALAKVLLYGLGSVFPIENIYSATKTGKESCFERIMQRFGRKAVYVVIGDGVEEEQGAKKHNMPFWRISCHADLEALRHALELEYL
Target sequence (Q15475 whole entry, looked up): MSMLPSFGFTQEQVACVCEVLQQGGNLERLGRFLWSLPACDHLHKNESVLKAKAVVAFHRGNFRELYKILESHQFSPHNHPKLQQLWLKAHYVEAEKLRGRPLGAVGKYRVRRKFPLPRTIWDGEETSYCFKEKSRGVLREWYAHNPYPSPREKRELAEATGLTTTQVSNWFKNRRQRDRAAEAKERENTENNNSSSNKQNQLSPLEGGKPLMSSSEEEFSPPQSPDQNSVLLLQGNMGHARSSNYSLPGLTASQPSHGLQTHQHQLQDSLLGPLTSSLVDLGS
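Six1/Eya2 binding was read as AlphaScreen signal after compounds were pinned into GST-Six1 plus His-tagged Eya2 (5X stock 250/500 nM) in pH 8.0 Tris/NaCl/TCEP buffer, beads added, then incubated 1 h, 37 C, dark.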
D2 PAM: human D2 receptor positive allosteric modulation; P14416; DiscoveRx D2 beta-arrestin cells, luminescence, 90 min; 100% = 57 uM dopamine signal; potentiation, % (test concentration not listed); 360,000 tested, 0.23% active; AID 624464; active = potentiation of 50% or more; inconclusive = 30% to 50%; inactive = 30% or less;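 further: compound concentration not given in the record; tested on top of an EC20 dose of dopamine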
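PathHunter D2 cells, attached overnight at 37 deg C, received compound in DMSO plus dopamine at EC20 (50 nM final) for 90 min at 37 deg C. Beta-arrestin recruitment was read as luminescence after 1 h with detection reagent at ambient temperature.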
gsp agonist: agonists of gsp mutant (McCune-Albright syndrome). AID 624287. Potency, µM (titrated, usually from 76.9 µM), for inactives: at the top dose activation (cAMP increase), hits mostly activators. gsp mutant cells, cAMP HTRF, 30 min; control for the full effect not named in the record. 340,000 tested, 0.13% active; active = well fitted activation curve with a large enough effect; inconclusive = small, poorly fitted or top-dose-only effect, or another doubt; inactive = no such curve, though single readings can be large or run the other way; cell line not stated here;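 further: phosphodiesterase inhibitor Ro 20-1724 added with compounds to block cAMP breakdown; potency means the concentration at half of the fitted maximal effect; nearly all actives have a fitted effect of over 60% in size; about a fifth of the inactives were tested at one dose only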
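Cells stably selected in G418 were plated at 2000/well, grown 16-24 hr, then given compounds in DMSO with the PDE inhibitor […] (300 uM solution added) for 30 min at 37C; cAMP was read by HTRF.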
D2 ag: agonists of human D2 dopamine receptor (beta-arrestin); DiscoveRx PathHunter D2 beta-arrestin, luminescence, 90 min; 100% = 57 uM dopamine signal; P14416; 360,000 tested, 0.084% active; activation, % (test concentration not listed); in the data active = activation above about 40%; inconclusive = about 15% to 40%; inactive = below about 15%; further: compound concentration not given in the record; the text of the record calls up to 30% inactive
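Agonist mode: compounds alone added to overnight-plated D2 PathHunter cells for 90 min at 37 C, with 57 uM final dopamine (EC100) defining full response. Beta-arrestin recruitment detected by chemiluminescent reagent, read after 1 h at ambient temperature.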
CtBP-E1A inh: CtBP/E1A binding inhibition. 340,000 tested, 0.49% active. AlphaScreen GST-E1A/His-CtBP binding, 1536-well; active compounds read low; control for the full effect not named in the record. activity change, % (test concentration not listed); in the data active means activity change below about -65%; inconclusive means about -30% to -65%; inactive means above about -30%; further: on the % scale 0 is the no-effect control and ±100 the full control effect
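AlphaScreen with 125 nM GST-E1A and 125 nM His-CtBP (5X stocks) in Tris pH 8.0, 300 mM NaCl, BSA, Tween 20, TCEP. Compounds preincubated 2 h at 37 deg C, then glutathione donor/nickel acceptor beads added for 1 h at 37 deg C in dark.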
An asterisk follows results filed as active; u = inconclusive; x = not tested or not shown; [ ] = another dose, or the depositor's remark.

gsp antagonist,Six1-Eya2 inh,D2 PAM,gsp agonist,D2 ag,compound,CtBP-E1A inh
-8%,2,-13,2%,-4.2,Cc1ccc(C(CC(=O)N2CCNCC2)c2ccccc2)c(O)c1C (stereo not drawn),x
3%,-20,-8,9%,0.1,COc1ccc(-c2cn3c(C)c(C(=O)NCCN4CCOCC4)sc3n2)cc1,-24
4%,-22,-5,-25%,-5.6,O=C(/C=C/c1ccc(Cl)cc1Cl)OCC(=O)N1CCCC1,x
0%,5,1,1%,-1.3,Cc1ccc(S(=O)(=O)NC(Cc2ccc(Cl)cc2)C(=O)O)cc1 (stereo not drawn),x
8%,3,-9,-24%,-2.6,Cc1nnc(NC(=O)CSc2nnc(C)c(=O)n2N)s1,-6
3%,7,-2,8%[15.4 µM],1.0,CCS(=O)(=O)n1nc(-c2ccco2)nc1N,1
-24%,-13,-30,-4%,-5.3,O=C(Nc1ncccc1O)c1cccc(S(=O)(=O)N2CCN(c3ccc(F)cc3)CC2)c1,-1
-3%,1,8,11%[15.4 µM],-5.6,Cc1cccc(NC(=O)CSCC(=O)OCc2ccccn2)c1,-20
6%,-17,-25,x,0.9,COc1cc(OC)c2ccc(=O)oc2c1C(CCN1CCCCC1)c1ccc(N(C)C)cc1 (stereo not drawn),-20
-25%,-3,-28,-1%[15.4 µM],-1.0,CSc1ccccc1NC(=O)CN(C)CC(=O)c1[nH]c(C)c(C(C)=O)c1C,4
u,-10,-1,15%[15.4 µM],1.9,CCCCCc1nc2sc3c(c2c(=O)n1NC(=O)c1ccc([N+](=O)[O-])cc1)CC(C)(C)OC3,-10
22µM*,3,8,7%,3.2,CCSc1nnc(NC(=O)C(C)(C(F)(F)F)C(F)(F)F)s1,1
-11%,-6,-4,u,5.3,CN1CCN(c2nc3ccccn3c(=O)c2/C=C(\C#N)S(=O)(=O)c2ccc(Cl)cc2)CC1,-3
2%,4,-10,7%,-1.6,Cc1c(C)c2ccc(OCC(=O)NCCN3CCOCC3)c(C)c2oc1=O,-19
3%,6,-3,1%,2.2,COc1ccc(C(=O)N2CCC(C(=O)Nc3cccc(C)c3)CC2)cc1OC,2
8%,3,-5,29%,2.0,Cc1ccc(C23CC4CC(CC(NC(=O)NN)(C4)C2)C3)cc1,x
17%,-2,10,u,-4.1,Cc1ccccc1C(=O)Nc1ccnn1C1CCN(C(=O)C2CCOC2)CC1 (stereo not drawn),3
0%,1,-3,5%,3.8,O=S(=O)(Nc1ccc2cn[nH]c2c1)c1ccccc1,4
8%,4,1,8%[15.4 µM],-0.9,O=C(CCNS(=O)(=O)c1ccccc1C(F)(F)F)NNC(=O)C1COc2ccccc2O1 (stereo not drawn),3
-7%,-7,-14,2%,-2.4,O=C1CC(N2CCN(Cc3ccc4c(c3)OCO4)CC2)C(=O)N1c1cccc2ccccc12 (stereo not drawn),-3
-1%,1,-11,5%[15.4 µM],-2.4,COc1ccc(-n2cnc3cc([N+](=O)[O-])ccc32)cc1,-13
-14%,22,-1,-30%[15.4 µM],-1.5,O=C(NCCSc1ccc(Br)cc1)c1ccc2nc[nH]c2c1,2
-1%,-69*,-17,-2%[15.4 µM],-9.9,O=C1NCCCC1C(=O)N/N=C/c1cc([N+](=O)[O-])ccc1O (stereo not drawn),-96*
8%,-7,-2,14%,0.2,COc1cc(OC)cc(C(=O)N/N=C/c2ccc(OC)c(COc3ccc4ccccc4c3)c2)c1,-15
5%,0,-3,-16%,-1.1,CCC(C)NC(=O)C(=O)NCC1CCCN1CC (stereo not drawn),0

Entries of single compounds, looked up by structure. Values in the order: gsp antagonist	Six1-Eya2 inh	D2 PAM	gsp agonist	D2 ag	CtBP-E1A inh
O=C1NCCCC1C(=O)N/N=C/c1cc([N+](=O)[O-])ccc1O (stereo not drawn) in the list: -1%	-69*	-17	-2%[15.4 µM]	-9.9	-96*
O=C(Nc1ncccc1O)c1cccc(S(=O)(=O)N2CCN(c3ccc(F)cc3)CC2)c1 in the list: -24%	-13	-30	-4%	-5.3	-1
O=S(=O)(Nc1ccc2cn[nH]c2c1)c1ccccc1 in the list: 0%	1	-3	5%	3.8	4

Continued.
gsp antagonist,Six1-Eya2 inh,D2 PAM,gsp agonist,D2 ag,compound,CtBP-E1A inh
x,5,-5,x,-4.9,CC1(C(=O)NS(=O)(=O)C2CC2)CCCN(C(=O)c2ccc(C(F)(F)F)cc2)C1 (stereo not drawn),11
0%,-6,-3,5%,-1.8,C=CCSc1nnc2nc3[nH]c4c(C)cccc4c3nn12,-8
-6%,0,-14,-74%[inhibitor],-0.7,CCSc1cc(N2CCCC2)nc(-c2ccc(F)cc2)n1,-2
-6%,-2,-17,5%,0.1,COC(=O)c1c(-c2ccccc2)c(-c2ccccc2)nn(C)c1=O,x
x,-11,-6,x,-5.7,COc1cccc(CNc2nc3cc(-c4cccc(C(=O)NCCO)c4)sc3c(=O)n2C)c1,-3
14%,6,-7,8%,-2.4,COc1c(C)cc(S(=O)(=O)NC2CC(C)(C)NC(C)(C)C2)c(C)c1C,2
5%,-3,-4,u,1.5,COc1ccc(-c2cc(C(F)(F)F)n3ncc(C(=O)O)c3n2)cc1OC,5
10%,7,-7,9%[15.4 µM],-0.9,Cc1ccc(C(C(=O)NC2CCCCC2)N2CCCC2)cc1 (stereo not drawn),7
-1%,-11,-2,10%,1.0,COCCNC(=O)C(=O)c1cc(C)n(-c2ccc([N+](=O)[O-])cc2)c1C,8
-5%,-2,-14,17%,-1.1,CN(Cc1ccccc1)C(=O)COc1cc(=O)n(C)c2ccccc12,9
13%,3,-25,u,-3.1,COc1ccc(Cl)cc1C(=O)Nc1ccc(S(=O)(=O)N2CCCC2)cc1,-11
6%,-1,-5,14%,1.8,COCc1cc(C)n(CC(=O)N2CCCC2)c(=O)c1C#N,-9
11%,5,-13,-14%,15,CC(OC(=O)CCN=C1NS(=O)(=O)c2ccccc21)C(=O)Nc1ccccc1F (stereo not drawn),-1
-19%,-9,-7,u,-11,Cn1cccc1/C=N\NC(=O)C1COc2ccccc2O1 (stereo not drawn),x
8%,6,-3,-1%,-1.3,O=C(CCC1CCCC1)N1CCN(C(=O)C2CC2)CC1,7
x,4,-4,x,-5.0,CCCNC(=O)C1(C)CCCN(Cc2ccc(Cl)cc2)C1 (stereo not drawn),3
-5%,5,-13,u,1.2,CCOCCCNC(=O)CN1C(=O)c2cccc3cccc1c23,x
4%,-21,-3,-17%[15.4 µM],-3.2,Cc1ccc(S(=O)(=O)N2CCN(C(=S)NCc3ccc4c(c3)OCO4)CC2)cc1,9
-10%,-9,10,-45%[inhibitor],-6.6,CCN(Cc1ccccc1)C(=S)Nc1cc(C(=O)OC)ccc1C(=O)OC,-1
-6%,10,15,-67%[inhibitor],-0.4,O=S(=O)(NCCc1ccccc1F)c1cccc(S(=O)(=O)N2CCOCC2)c1,10
u,-6,5,-23%,u,COc1cccc(S(=O)(=O)NCc2ccc(C(=O)N3CCN(c4ccccc4)CC3)cc2)c1,3
-12%,-20,-16,1%[15.4 µM],-8.1,COc1cccc(CC(=O)Nc2nc(-c3cc(OC)ccc3OC)cs2)c1,0
-11%,5,-5,27%[15.4 µM],-4.0,S=C(Nc1ccccc1Cl)N(CCCN1CCOCC1)Cc1ccccn1,8
-1%,0,-3,-10%,1.3,COc1ccc(NC(=O)CN(C)C(=O)c2cc3c(s2)CCC(C)C3)cc1 (stereo not drawn),0
9%,5,-6,-138%[inhibitor],-1.6,COc1ccc(C=CC(O)CCN2CCC3CCC(C3)C2)cc1 (stereo not drawn),1

Results in CtBP-E1A inh, for 2 of the compounds above:
structure,CtBP-E1A inh
C=CCSc1nnc2nc3[nH]c4c(C)cccc4c3nn12,-8
CCSc1cc(N2CCCC2)nc(-c2ccc(F)cc2)n1,-2

Additional records
gsp antagonist,Six1-Eya2 inh,D2 PAM,gsp agonist,D2 ag,compound,CtBP-E1A inh
x,4,-1,0%,-4.0,C[C@@H]1CN([C@H](C)CO)C(=O)CCCn2cc(nn2)CO[C@H]1CN(C)C(=O)Nc1ccccc1F,0
x,37,9,u,5.3,CCN(CC)C(=O)C1=C(C)N(Cc2ccc(F)cc2)C(=O)C(CC(=O)NC2CCCC2)C1 (stereo not drawn),0
1%,3,-13,0%,-0.5,O=S(=O)(c1cccs1)N1CCN(c2ccccn2)CC1,11
6%,9,4,1%,0.0,CCOC(=O)N1CCN(C(=O)CN(C)S(=O)(=O)c2ccc(OC)c(OC)c2)CC1,2
-9%,4,-13,u,-3.8,Cc1ccc(C(=O)C(OC(=O)CCC(=O)Nc2cccc(C)c2)c2ccccc2)cc1 (stereo not drawn),6
-7%,8,-6,28%,-0.1,CCOC(=O)c1cnc(-c2ccccc2)nc1N,6
4%,-1,-31,-8%,-9.0,OCCC#Cc1ccc(CN2CCN(Cc3ccccc3)C(CCO)C2)cc1 (stereo not drawn),-1
4%,-3,-7,-9%[15.4 µM],-1.6,CCOc1ccc(/C=N/NC(=O)Nc2ccccc2)cc1,3
-3%,8,14,-25%,0.5,O=C(NC1CCCc2ccccc21)c1ccc(Cl)nc1 (stereo not drawn),-7
5%,18,4,18%[15.4 µM],-3.6,Nc1cc(N)nc(SCC(=O)NNC(=O)Cc2ccccc2)n1,17
4%,u,-12,-69%[inhibitor],-0.6,COc1cccc(CC(=O)OCC(=O)Nc2nnc(-c3ccccc3)o2)c1,-26
12%,1,-2,-10%,-2.7,CNc1c(N)n(Cc2ccccc2)c(=O)[nH]c1=O,8
-18%,u,-12,3%,-0.5,O=C(O)c1ccc(COc2ccccc2/C=C2/NC(=O)N(c3cccc(Cl)c3)C2=O)cc1,8
10%,-5,-11,-21%,-1.2,CCOc1ccc(C(=O)COC(C)=O)cc1,-4
2%,5,-2,x,-1.6,C=CCNC(=O)c1onc(CSc2nc3ccccc3[nH]2)c1C(=O)NCC=C,7
-14%,-20,1,-7%[15.4 µM],-3.0,COc1cccc(C(=O)COc2cccc(NC(=O)c3ccco3)c2)c1,-16
11%,9,12,-8%,-1.3,COc1ccccc1NS(=O)(=O)c1ccc(C(=O)NCCCN2CCCC2=O)cc1,x
-16%,-2,15,2%,-0.4,Cc1sc(NC(=O)CCC(=O)O)c(C(N)=O)c1-c1ccccc1,12
18%,9,-3,11%[15.4 µM],11,Cc1ccc(S(=O)(=O)n2nc(C)cc2N)cc1,20
-2%,2,-2,-76%,-5.8,COC(=O)c1ccc(CSc2nc(C)nc3c2c(=O)n(C)c(=O)n3C)o1,3
8%,3,0,2%[15.4 µM],-2.8,COc1ccc(S(=O)(=O)N2CCN(C(=O)c3ccccn3)CC2)cc1,0
1%,5,14,u,-7.3,c1ccc(CNc2c3ccccc3nc3ccccc23)cc1,x
11%,1,-6,2%[15.4 µM],-6.0,C=CCNc1ccc(C(=O)O)cc1,3
8%,46,-3,1%,-4.4,O=C(COc1ccc2c3c(c(=O)oc2c1)CCCC3)NCc1cccnc1,6
5%,-4,-26,2%[15.4 µM],-2.9,COC(=O)c1ccc(CN2CCCC(CCC(=O)NCc3ccc(C)o3)C2)cc1 (stereo not drawn),0
